# Source: PubChem (National Center for Advancing Translational Sciences (NCATS))
# SmPrx2 inh: blocks S. mansoni peroxiredoxin 2 enzymatic activity; 0.07% of 65,000 active; Potency, µM; S. mansoni Prx2 activity coupled to TGR/GSH (TGR is thioredoxin glutathione reductase), NADPH fluorescence loss, qHTS; some inactives read as strong as hits; AID 448; active means full or partial inhibition curve with a strong effect at the top dose; inconclusive means weaker partial or single-point curve; inactive means no accepted curve; also: series up to 57 µM; many of its hits are not listed in these tables
#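 Prx2 activity was followed as the loss of NADPH fluorescence (ex 365/em 450 nm), read every 30 sec for 8 min after H2O2 start. The enzyme mix (50 nM Prx2, 25 nM TGR, GSH, NADPH; pH 7.4 phosphate buffer) was incubated with compound for 15 min at room temperature first.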
# LT uptake inh: blocks cellular internalization of anthrax lethal toxin. Cells, anthrax lethal toxin internalization, FRET ratio (460/530). Potency, µM (doses to about 40 µM), inactives show top-dose activity change, negative = inhibition, actives largely listed as inhibitors. 0.67% of 70,000 active. AID 912; active = well fitted falling ratio curve with the 530 nm signal flat; inconclusive = other ratio curves, or a change in one channel alone; inactive = flat curves in the ratio and both channels; the % refers to the ratio; also: % is scaled to controls: 0 for no effect and ±100 for the full control effect; nearly all actives have a fitted effect of over 50% in size; tested in ME-180 cells; beta-lactamase reporter
# Numbers without * were called inactive; ? = inconclusive; · = no result given; & = joins results of further samples; [ ] = remark or other dose. Potency is read from the fitted curve at half-maximal effect. These rows are one share of the data; rates above refer to the full screens.
SMILES,SmPrx2 inh,LT uptake inh
C[C@@H]1O[C@H](O[C@@H]2CC[C@@]3(C=O)[C@H]4CC[C@@]5(C)[C@@H](C6=CC(=O)OC6)CC[C@@]5(O)[C@@H]4CC[C@]3(O)C2)C[C@H](O)[C@@H]1O,>57,-16%[3.58 µM]
CCOC(=O)c1[nH]c2ccc(OC)cc2c1NC(=O)c1nonc1C,>57,-11%
COc1ccc(NC(=O)Nc2ncn(Cc3cccc(C(F)(F)F)c3)n2)cc1OC,>57,-4%
C=CCSC1=N/C(=C\c2ccc(C)o2)C(=O)S1,>57,-19%
COc1cc(Sc2ccc(C)cc2)c(OC)cc1N,>57,-11%
CCOc1ccc(N2CC(C(=O)NCc3ccc(F)cc3)CC2=O)cc1 (centres undefined),>57,-22%
Cc1ccc(O)c(-c2cc(C(=O)Nc3ccc(S(=O)(=O)N4CC(C)OC(C)C4)cc3)[nH]n2)c1 (centres undefined),>57,·
CN1CCN(Cc2cc(COCc3ccccc3)c3cccnc3c2O)CC1,>57,-9%
O=C(C1CCN(S(=O)(=O)N2CCC3(CC2)OCCO3)CC1)N1CCOCC1,>57,-2%
CC(C)(C)n1nnnc1C(c1cccc(C#N)c1)N1CCCc2ccccc21 (centres undefined),>57,?
OC1CCCN(c2c3c(nc4cc(-c5cccc(Cl)c5)nn24)CCC3)C1 (centres undefined),>57,13%
Cc1ccc(NC(=O)CSc2nnc(Cn3c(=O)sc4ccccc43)n2C)cc1,>57,-9%
Cc1ccc(C)c(NC(=O)C2CC(O)CN2C(=O)OC(C)(C)C)c1 (centres undefined),>57,7%
CCOC(=O)c1ccc(CS(=O)c2ccc(Cl)cc2)o1 (centres undefined),>57,5%
O=C(CCS(=O)(=O)c1ccc(Br)s1)N1CCc2ccccc21,>57,-9%
Cc1ccc(N(C(C)C(=O)Nc2ccc3c(c2)OCO3)S(C)(=O)=O)cc1 (centres undefined),>57,3%
OCCOc1ccccc1,·,1%
CCOC(=O)C1(Nc2nccs2)Sc2ccccc2NC1=O (centres undefined),>57,-10%
Cc1ccc(-c2nnc3ccc(SC(C)C(=O)O)nn23)cc1 (centres undefined),>57,0%
O=C(c1cc2ccccc2c(=O)o1)N1CCCc2ccccc21,>57,-1%
Cc1cc(C)n(-c2nc(NCCO)c3c4c(sc3n2)CCCC4)n1,>57,·
CCCC(=O)C1=C(N(C)c2ccccc2)CC(C)(C)C(C(=O)OC)C1=O (centres undefined),·,-10%
CC[C@H]1NC(=O)c2cc(S(N)(=O)=O)c(Cl)cc2N1,>57,-3%[3.58 µM]
CC(C)Cc1nnc(NC(=O)CSc2ncn[nH]2)s1,>57,-5%
CC(=O)N1CCc2cc(S(=O)(=O)NC(CC(C)C)C(=O)Nc3cc(C)ccn3)ccc21 (centres undefined),>57,0%
Cc1ccc(-c2nnn(CC(=O)N(CC3CCCO3)C(C(=O)NC(C)(C)C)c3ccc(F)cc3)n2)o1 (centres undefined),>57,10%
O=Cc1ccc(Cl)cc1Cl,·,14%
O=C(O)CCC(=O)CCC(=O)c1ccccc1,>57,-6%
CCN1C=CC(=C2C(=O)c3ccccc3C2=O)C=C1,>57,-8%
CS(=O)(=O)Nc1ccc([N+](=O)[O-])cc1OC1CCCCC1,>57,-15%
c1ccc(-c2nc(-c3ccncc3)no2)cc1,>57,-4%
Cc1ccc(NC(=O)CSc2nnc(Cn3cnc4ccccc43)o2)cc1,>57,?
CCn1c(SCC(=O)NCc2cccs2)nnc1-c1ccncc1,>57,-7%
COc1ccc2[nH]c(=O)c(CN(Cc3cccs3)S(=O)(=O)c3cccc4nsnc34)cc2c1,>57,-10%
Cc1ccc(C)c2[nH]c(=O)c(CCNC(=O)C(C)(C)C)cc12,>57,3%
O=S1(=O)C=C(N2CCCCC2)c2ccccc21,>57,11%
COc1ccc(Cl)cc1NC(=O)c1ccoc1C,>57,-11%
Cc1nn(Cc2ccccc2)c(C)c1C(=O)OCC(=O)c1cc(C)n(C2CC2)c1C,>57,?
O=C(NCCCN1CCOCC1)c1ccc(CS(=O)(=O)c2cccc(C(F)(F)F)c2)o1,>57,·
O=C(CSc1ccc2nnc(-c3ccc(Cl)cc3)n2n1)N1CCCC1,>57,4%
Cc1c(C(=O)NCc2ccccc2Cl)oc2c1C(=O)CCC2,>57,2%
CCN1C(=O)[C@H]2[C@H]3[C@H](O)[C@H](O)C/C(=N/OCc4ccccc4)[C@@H]3CC[C@@H]2C1=O,·,-9%[1.6 µM]
O=C(CN1CCOCC1)Nc1ccc(S(=O)(=O)NC2CCCCC2)cc1,>57,21%
Cc1ccc(N2CCN(C(=O)c3ccccc3Br)CC2)c(C)c1,>57,4%
O=[N+]([O-])c1ccc2c(c1)Cc1cc(N=Cc3ccc4c(c3)OCO4)ccc1-2,>57,1%[8 µM]
Nc1cc(N)c(OCC(F)(F)F)cc1OCC(F)(F)F,?,26%
CS(=O)(=O)Nc1cccc(C(=O)CC2(O)C(=O)Nc3ccc(Br)cc32)c1 (centres undefined),>57,13%
C/C(=C\[C@@H](N)C(=O)O)CP(=O)(O)O,>57,-4%
Cc1cc2ccccc2c(=O)n1CC(=O)NCC1COc2ccccc2O1 (centres undefined),>57,8%
Cc1occc1-c1nnc(SCC(=O)Nc2ccccc2N2CCCCC2)n1C,>57,9%
CSc1nc(N)c2ncn([C@@H]3O[C@@H](COP(=O)(O)OP(=O)(O)OP(=O)(O)O)[C@@H](O)[C@H]3O)c2n1,>57,-4%
O=C(Nc1nnc(/N=C/c2ccco2)s1)c1ccc(F)cc1,>57,-8%
Cc1ccc2nc3c(cc(C(=O)NCC4CCCO4)n3C)c(=O)n2c1 (centres undefined),>57,?
COc1cc(-c2ccc(=O)[nH]n2)ccc1OC(F)F,>57&>57&>57,?
CCC(=O)Nc1cc(=O)[nH]c2ncnn12,>57,7%
CCOc1ccc2nc(NS(=O)(=O)c3ccc4c(c3)n(C)c(=O)n4C)sc2c1,>57,1%
Cc1nc2cc3nc(C)sc3cc2s1,>57,-2%
COC(=O)[C@@]1(Cc2ccc(OC)cc2)[C@H]2c3cc(C(=O)N(C)C)n(CCN4CNCC4=O)c3C[C@H]2CN1C(=O)c1ccccc1,>57,-1%
CCOC(=O)c1cc2c3ccccc3n(CC)c2nc1N,·,1%
Cc1cc(C)c2c(CC(=O)O)coc2c1,·,-6%

# New compounds follow
SMILES,SmPrx2 inh,LT uptake inh
N#Cc1nc(COc2ccc(Cl)cc2Cl)oc1N1CCN(c2ccccc2)CC1,>57,?
CN(C)/C=C1/Nc2ccccc2C1=O,>57,-4%
CSc1ccc(C(C(C(=O)c2cccs2)N2CCOCC2)N2CCOCC2)cc1 (centres undefined),>57,5%
O=C(Cn1nc(-c2ccc(Cl)cc2)ccc1=O)NCCN1CCOCC1,>57,-4%
O=C(NCc1ccco1)C1CC(=O)N(CCc2ccccc2)C1 (centres undefined),>57,-24%
O=C(NC1CCCc2ccccc21)C1CCCN(S(=O)(=O)c2cnc[nH]2)C1 (centres undefined),>57,14%
C=C(C)COc1ccc(-c2nc(N)nc(C)c2Oc2ccccc2OC)c(O)c1,>57,?
CCOc1ccc(NC(=O)CN(c2ccc(OC)cc2)S(C)(=O)=O)cc1,·,3%
CCCc1nc2ccccc2c(=O)n1/N=C/c1ccc(O)cc1,>57,?
COc1ccccc1CC(=O)Nc1ccc(OC)c(OC)c1,·,5%
COc1ccc(OC)c(NC2c3ccccc3C(=O)N2Cc2ccc3c(c2)OCO3)c1 (centres undefined),>57,?
CC(=O)N(Cc1cc(=O)[nH]c2ccccc12)c1ccccc1,>57,-9%

# Look-ups from above:
# O=C(Nc1nnc(/N=C/c2ccco2)s1)c1ccc(F)cc1 @ LT uptake inh = -8%
# COc1ccc(Cl)cc1NC(=O)c1ccoc1C @ LT uptake inh = -11%

# Next section:
SMILES,SmPrx2 inh,LT uptake inh
Cc1cc(OCc2nc(-c3cccnc3)no2)c(C)cc1Br,>57,11%
O=C(Cn1cnc2scc(-c3ccccc3)c2c1=O)N1CCOCC1,>57,8%
COC(=O)C1C(=O)c2c([nH]c(C(=O)OC3CCCC3C)c2C)CC1C (centres undefined),>57,?
Cc1nn(-c2ccccc2)c2sc(C(=O)c3c(N)n(C)c(=O)n(C)c3=O)cc12,>57,-1%
COc1ccc(S(=O)(=O)N2CCCC(C(=O)Nc3ccc(NC(=O)c4ccccn4)cc3)C2)cc1 (centres undefined),>57,-6%
C[N+](C)(C)CCN[N@@+]1(C)CCCc2ccccc21,>57,-10%[8 µM]
O=C(COc1ccc(Cl)cc1)NCc1nnc(SCC(=O)N2CCCCC2)o1,>57,?
CN1CCN(CCCNC(=O)c2cc3c(-c4ccc(Cl)cc4)nn(C)c3s2)CC1,>57,6.3µM*
Oc1cc2c(cc1O)[C@H]1c3ccccc3CN[C@H]1CC2,>57,?
O=C(NC1CCCCC1)C(c1ccco1)N(Cc1cccs1)C(=O)Cn1nnc2ccccc21 (centres undefined),>57,6%
O=C(O)CCc1ccc(-c2ccc(F)cc2)n1NC(=O)c1ccco1,>57,6%
CCn1c(-c2ccc3[nH]c(C)c(C)c3c2)n[nH]c1=S,·,?

# 6 successive entries from above, quoted:
SMILES,SmPrx2 inh,LT uptake inh
O=C(COc1ccc(Cl)cc1)NCc1nnc(SCC(=O)N2CCCCC2)o1,>57,?
CN1CCN(CCCNC(=O)c2cc3c(-c4ccc(Cl)cc4)nn(C)c3s2)CC1,>57,6.3µM*
Oc1cc2c(cc1O)[C@H]1c3ccccc3CN[C@H]1CC2,>57,?
O=C(NC1CCCCC1)C(c1ccco1)N(Cc1cccs1)C(=O)Cn1nnc2ccccc21 (centres undefined),>57,6%
O=C(O)CCc1ccc(-c2ccc(F)cc2)n1NC(=O)c1ccco1,>57,6%
CCn1c(-c2ccc3[nH]c(C)c(C)c3c2)n[nH]c1=S,·,?

# (listing goes on)
SMILES,SmPrx2 inh,LT uptake inh
CC(=O)C1C(=O)CC(C)(O)C(C(C)=O)C1c1ccc(N(C)C)cc1 (centres undefined),>57,?
C[C@H](O)CO[C@H]1[C@H]2O[C@H]3[C@H](O)[C@@H](O)[C@@H](O[C@H]4[C@H](O)[C@@H](O)[C@@H](O[C@H]5[C@H](O)[C@@H](O)[C@@H](O[C@H]6[C@H](O)[C@@H](OC[C@H](C)O)[C@@H](O[C@H]7[C@H](O)[C@@H](OC[C@H](C)O)[C@@H](O[C@H]8[C@H](O)[C@@H](O)[C@@H](O[C@@H]([C@@H]1O)[C@@H](CO)O2)O[C@@H]8CO)O[C@@H]7CO)O[C@@H]6CO)O[C@@H]5CO)O[C@@H]4CO)O[C@@H]3CO,>57,-2%
CCc1ccc(OCC(=O)N(C)CCC#N)c(Br)c1,>57,6%
COc1cccc(C2CC(c3cccs3)Nc3ncnn32)c1 (centres undefined),>57,-1%
COc1ccc(-c2noc(COc3ccc(C)c(C)c3)n2)cc1OC,>57,?
CC(C)[C@@H](Br)C(=O)NCC(=O)O,·,8%[8 µM]
Cc1c(=O)n(OCc2ccccn2)c2ccccc2[n+]1[O-],>57,2%
NC(=O)CN1C(=O)C2C3C=CC(C3)C2C1=O (centres undefined),>57,-9%
CCC(NC(=O)c1ccccc1NC(=O)c1ccco1)C(=O)NC1CCCCC1 (centres undefined),·,-12%
N#CC1(O)CCCCC1,·,-7%
O=C1CCCN1CCC1CCN(C(=O)Nc2ccccc2)CC1,>57,-9%
CC1CCC(C(=O)O)NC1c1ccc(C#CCN(C)C)cc1 (centres undefined),·,-2%[8 µM]
c1cnc(N2CCCC3(CCNCC3)C2)nc1,>57,5%
O=C(CSc1ncnc2c1cnn2-c1ccccc1)Nc1ccc2c(c1)OCO2,>57,17%
CCOc1ccc(S(=O)(=O)n2nnc3ccccc32)cc1C,>57,1%
CCOc1ccc2[nH]c(=O)c(CN(C(=O)N3CCOCC3)C3CC3)cc2c1,>57,-10%
CCc1cc(Br)ccc1NC(=O)C1CCCO1 (centres undefined),>57,-7%
Cc1ccc(C(=O)CC(C(=O)O)n2ccc(C)n2)cc1 (centres undefined),>57,9%
Cc1cc(OCC(=O)O)c2cccc(C)c2n1,>57,3%
CS(=O)(=O)N1CCC[C@@]2(CCN(c3ccncc3)C2)C1,>57,17%
COc1ccc2cc(C(=O)OC(C)C)sc(=O)c2c1OC,>57,-14%
CCOC(=O)CC(C(=O)OCC)P(=O)(c1ccccc1)c1ccccc1 (centres undefined),·,5%
CC(C)[C@@H](CC(=O)N[C@@H]1CCNC[C@H]1C(=O)N[C@H](CC(=O)N[C@@H](CCC(=O)O)CC(=O)O)Cc1c[nH]c2ccccc12)NC(=O)C[C@H](Cc1c[nH]c2ccccc12)NC(=O)[C@@H]1CCCC[C@H]1N,>26,5%
NC(=O)c1ccccc1NC(=O)CN1CCOCC1,>57,-5%
CCC(O)CNc1nc(-n2nc(C)cc2C)nc2sc3c(c12)CCCC3 (centres undefined),>57,7%
